Assay outcomes: PubChem, National Center for Advancing Translational Sciences (NCATS)
AID923 – qHTS Assay for Allosteric/Competitive Inhibitors of Caspase-1: Spectroscopic Profiling in AFC Spectral Region; Potency, µM (titrated, usually from 57.5 µM), for inactives: top-dose fluorescence increase, hits mostly activators; AID 923, 2007; compound fluorescence, AFC spectral region (405/520 nm); almost no hit is shown here; actives 1.1% (n = 75,000); active means well fitted activation curve with a large enough effect; inconclusive means small, poorly fitted or top-dose-only effect;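 further: potency means the concentration at half of the fitted maximal effect; 0% is about no effect; scaled to a free AFC standard on each plate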
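Titrations up to 57 uM read every 20 sec for 3 min (405/520 nm) with 50 nM caspase 1 and 5 uM Ac-WEHD-AFC, pH 7.5 HEPES buffer. Fluorescence-vs-time intercept gave baseline, scaled against on-plate AFC standard.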
A647 fluor – compound fluoresces in the A647 spectral region; Compound fluorescence, A647 channel (570/671 nm), Tris buffer; AID 592; 59,000 tested, under 10 active; max dye-equivalent concentration, M; active means above 1 µM dye equivalent; inconclusive means 0.1 to 1 µM; inactive means 0.1 µM or less;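 further: values scaled relative to a standard on each plate; highest value over a series up to 38 µM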
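Spectral profiling of library compounds in pH 8.0 Tris: 15 min room-temperature incubation, single ex/em pair (570/671 nm), response normalized to Alexa 647 equivalents.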
Resorufin fluor – resorufin region autofluorescence; actives 0.04% (n = 59,000); Compound fluorescence, resorufin region 547/598 nm, buffer; stronger effect = higher value; max dye-equivalent concentration, M; active = above 10 nM dye equivalent; inconclusive = 1 to 10 nM; inactive = 1 nM or less; a few of its hits are not listed in these tables; further: highest value over a series up to 38 µM
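Dye-equivalent concentration values derive from comparing each well's 547/598 nm fluorescence against resorufin standards included on every plate. Incubation was 15 min at room temperature in 100 mM Tris, pH 8.0.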
TSHR agonist – activates the human thyroid stimulating hormone receptor; Potency, µM (top dose mostly 57.1 µM), for the others: at the top dose activation, actives largely listed as activators; HEK293-CNG-TSHR cells (CNG channel as cAMP sensor), membrane potential dye, cAMP; actives 0.48% (n = 73,000); P16473; active = well fitted activation curve of enough size with the parental cells flat; inconclusive = any curve in the parental cells; inactive = parental cells flat and receptor cells flat or falling; further: potency means the concentration at half of the fitted maximal effect; % of control where 0% means no effect; weak receptor curves with flat parental cells got no call and are not listed
Target sequence (P16473 whole entry, looked up): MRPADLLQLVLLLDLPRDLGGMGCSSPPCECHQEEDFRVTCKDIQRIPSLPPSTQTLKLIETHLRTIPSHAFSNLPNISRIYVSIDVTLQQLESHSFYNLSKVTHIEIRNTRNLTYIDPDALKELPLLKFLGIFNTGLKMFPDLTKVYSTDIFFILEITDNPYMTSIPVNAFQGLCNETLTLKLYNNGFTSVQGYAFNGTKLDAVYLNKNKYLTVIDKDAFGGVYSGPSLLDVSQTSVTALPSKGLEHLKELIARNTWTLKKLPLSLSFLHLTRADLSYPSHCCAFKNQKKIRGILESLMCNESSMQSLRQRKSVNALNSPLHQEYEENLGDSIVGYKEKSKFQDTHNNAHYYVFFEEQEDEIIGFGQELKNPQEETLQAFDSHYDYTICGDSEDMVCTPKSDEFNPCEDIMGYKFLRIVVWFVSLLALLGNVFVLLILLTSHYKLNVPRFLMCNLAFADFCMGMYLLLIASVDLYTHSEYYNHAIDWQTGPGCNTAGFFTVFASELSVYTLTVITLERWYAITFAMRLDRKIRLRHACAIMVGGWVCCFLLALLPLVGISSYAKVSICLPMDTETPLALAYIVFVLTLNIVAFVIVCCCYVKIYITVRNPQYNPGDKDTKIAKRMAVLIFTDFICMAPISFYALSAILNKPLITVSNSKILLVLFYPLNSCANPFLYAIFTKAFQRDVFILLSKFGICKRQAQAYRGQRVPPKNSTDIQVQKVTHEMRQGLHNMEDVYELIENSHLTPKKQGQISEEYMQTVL
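HEK 293 cells stably expressing TSHR and a cAMP-gated CNG channel; parental CNG-only cells as counterscreen. Cells preloaded 60 min with membrane potential dye plus 100 uM RO 20-1724, then compound 30 min; fluorescence read at 590 nm.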
A488 fluor – A488 region autofluorescence. AID 591. max dye equivalency, M. compound autofluorescence, A488 spectral region, dye equivalency; stronger effect = higher value. actives 0.1% (n = 59,000); active = above 10 nM dye equivalent; inconclusive = 1 to 10 nM; inactive = 1 nM or less; about half of its hits are not listed in these tables;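 further: highest value over a series up to 38 µM; compound alone in buffer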
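Read-out: relative fluorescence at 480/540 nm, expressed as Alexa 488 dye-equivalent concentration from a six-point A488 standard included per plate. Conditions: 100 mM Tris, pH 8.0; 15 min incubation, room temperature.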
* hit, by the source's call; i = inactive; ? = inconclusive; nt = no result given; & = joins results of further samples; [ ] = remark or other dose. Some of the compounds tested; the hit share may differ from the screen's.

Values run as follows: A488 fluor | AID923 | A647 fluor | Resorufin fluor | TSHR agonist
- Cn1c(=O)[nH]c(=O)c2c1nc(N1CCCC1)n2CC(O)COc1ccccc1 (stereo not drawn)
 : nt | -3.3% | nt | nt | -6%
- O=[N+]([O-])c1ccc(S(=O)(=O)Cc2ccccc2)c2nonc12
 : i | 1.7%[11.5 µM] | 1e-09 | i | -3%[11.4 µM]
- COc1ccc(NC(=O)N2CCn3c2nc2ccccc23)cc1
 : i | 0.3% | 2.9e-09 | i | -5%
- C=CCOC(=O)C(C#N)c1nc2ccccc2nc1N1CCC(C(=O)OCC)CC1 (stereo not drawn)
 : i | nt | 1.3e-08 | i | nt
- COc1ccc2[nH]cc(CCNc3ncnc4ccc(-c5ccc6c(c5)OCO6)cc34)c2c1
 : i | 5.3% | 2.7e-08 | i | -10%
- CCN1C(=O)CC(N2CCC(Nc3ccc(OC)cc3)CC2)C1=O (stereo not drawn)
 : i | -1.4% | 1e-09 | i | -11%
- O=c1[nH][nH]c(=O)c2cc(N3CCCC3)ccc12
 : i | 0.1% | 3.6e-09 | i | 0%
- C=CCN1CCc2c(cc(O)c(O)c2Br)[C@H](c2ccccc2)C1
 : i | -0.9% | 1e-08 | i | ?
- COc1ccc(C(=O)N2CCC3(CC2)CN(c2ccccn2)C3)cc1
 : i | -1.0% | 3.7e-09 | i | 26%
- COCCNC(=O)CSc1nc2ccccc2c(=O)n1CC1CCCO1 (stereo not drawn)
 : i | -1.2% | 1e-09 | i | nt
- O=C(COC(=O)C1(c2ccc(F)cc2)CCCC1)N1CCN(C(=O)c2ccco2)CC1
 : i | -1.3% | 6.8e-09 | i | 4%
- Cc1ccc(C2CC(=O)Nc3cc4c(cc32)OCCO4)s1 (stereo not drawn)
 : i | -0.6% | 2.6e-08 | i | 20%
- O=C(NCc1ccco1)C(c1ccccc1F)N(Cc1cccnc1)C(=O)Cn1nnc2ccccc21 (stereo not drawn)
 : i | 1.1% | 3.1e-08 | i | ?
- O=C(CSc1n[nH]c(-c2ccccc2O)n1)N1CCCc2ccccc21
 : i | -0.4% | 8.5e-09 | i | ?
- Cc1ccc2c3c1C1(C(=O)N3C(C)(C)CC2C)C(C#N)=C(N)Oc2cc(O)ccc21 (stereo not drawn)
 : i | 0.1% | 1e-09 | i | 1%
- O=C(Nc1cccc(C(=O)Nc2ccc(S(=O)(=O)O)c3cc(S(=O)(=O)O)cc(S(=O)(=O)O)c23)c1)Nc1cccc(C(=O)Nc2ccc(S(=O)(=O)O)c3cc(S(=O)(=O)O)cc(S(=O)(=O)O)c23)c1
 : i | -1.1%&-1.4% | 3.9e-08 | i | ?
- CC1(C)Cc2c(sc3nc4n(c(=N)c23)CCCCC4)CO1
 : i | nt | 3.9e-09 | i | nt
- CCOC(=O)C(NCc1ccccn1)(NC(=O)c1cccnc1)C(F)(F)F (stereo not drawn)
 : i | 1.9% | 1e-09 | i | 10%
- COc1ccc2nc3oc(C(=O)N4CCN(c5ccccc5F)CC4)cc3cc2c1
 : i | -0.1% | 1.1e-09 | i | ?
- CCCCOc1ncnc2c1[nH]c1ccc(F)cc12
 : i | -1.5% | 6.8e-09 | i | ?

Brought forward from above: three entries, then new ones.
Values run as follows: A488 fluor | AID923 | A647 fluor | Resorufin fluor | TSHR agonist
- CCOC(=O)C(NCc1ccccn1)(NC(=O)c1cccnc1)C(F)(F)F (stereo not drawn)
 : i | 1.9% | 1e-09 | i | 10%
- COc1ccc2nc3oc(C(=O)N4CCN(c5ccccc5F)CC4)cc3cc2c1
 : i | -0.1% | 1.1e-09 | i | ?
- CCCCOc1ncnc2c1[nH]c1ccc(F)cc12
 : i | -1.5% | 6.8e-09 | i | ?
- CCOC(=O)c1ccc(NC(=O)Cn2cccc2)cc1
 : i | -0.9% | 2.7e-08 | i | 0%[11.4 µM]
- CN=C(NC)SC1CC(=O)N(c2ccccc2)C1=O (stereo not drawn)
 : nt | 3.2% | nt | nt | -2%
- Cc1c(C(=O)O)c(=S)sn1CCOc1ccccc1
 : i | nt | 8.1e-08 | i | nt
- CCC(C)NC(=O)c1cc(-c2ccccc2O)on1 (stereo not drawn)
 : nt | 13% | nt | nt | -4%
- Cc1nc(Cl)sc1C(=O)O
 : i | 2.1% | 1e-09 | i | ?
- CCn1c(SCc2cccc(C(F)(F)F)c2)nnc1-c1ccco1
 : i | 0.0% | 7.2e-09 | i | ?
- N[C@@H](Cc1c[nH]c2ccccc12)C(=O)NCC(=O)O
 : i | nt | 3.8e-09 | i | -1%
- Cc1cc(Oc2ccccc2)nc(SCC(N)=O)n1
 : i | 1.1% | 1.3e-09 | i | 11%
- CCOC(=O)N1CC=C2C(C#N)=C(N)C(C#N)(C#N)[C@H](c3ccc(OCC)c(OCC)c3)[C@H]2C1
 : i | 1.0% | 1e-09 | i | 12%
- CC(=O)c1cccc(S(=O)(=O)N(Cc2cc3cc4c(cc3[nH]c2=O)OCCO4)CC2CCCO2)c1 (stereo not drawn)
 : i | 0.3% | 2.1e-08 | i | 3%
- CCS(=O)(=O)N1CCC(C(=O)NCc2cccnc2)CC1
 : i | 0.5% | 5.3e-09 | i | ?
- CN(C)CCn1c(CO)nc2c1c(=O)n(C)c(=O)n2C
 : i | 2.3%[11.5 µM] | 2.8e-08 | i | -4%[11.4 µM]
- N#CCCCN1C(=O)C(O)(CC(=O)c2ccc3c(c2)OCCO3)c2ccccc21 (stereo not drawn)
 : i | -1.9% | 4.6e-08 | i | -4%
- CCCS(=O)(=O)N1CCCC(C(=O)NCc2ccco2)C1 (stereo not drawn)
 : i | 1.7% | 1e-09 | i | 4%
- CC(C)CCN1CC(C(=O)NC(C)C)CC1=O (stereo not drawn)
 : i | -0.6% | 1e-09 | i | 22%
- CCOC(=O)CSc1nnc(CSc2nc3sc4c(c3c(=O)[nH]2)CCC4)n1C
 : nt | 1.2% | nt | nt | 3%
- Cc1nn2c(-c3ccccc3)nnc2c2ccccc12
 : i | -0.3% | 1e-09 | i | ?
- CCOc1ccc2[nH]c(S(=O)(=O)CC)nc2c1Cl
 : i | -2.5% | 6.1e-09 | i | ?
- CC(=O)c1c(N)[nH]c(-c2ccccc2)nc1=S
 : i | -1.1% | 1e-09 | i | -5%[11.4 µM]
- O=C1CC(N2CCN(C3CC(=O)N(CCc4ccccc4)C3=O)CC2)C(=O)N1CCc1ccccc1 (stereo not drawn)
 : nt | 0.2% | nt | nt | -7%
- CCCS(=O)(=O)N1CCCC(C(=O)N2CCOCC2)C1 (stereo not drawn)
 : i | -0.2% | 4e-09 | i | -3%
- CCOCCCNC(=O)C1CCN(c2cc(C)nc3c(-c4ccc(OC)c(OC)c4)c(C)nn23)CC1
 : i | 2.1% | 1e-09 | i | -4%
- CCCNC(=O)CSc1nnc(-c2ccco2)n1C
 : i | 0.0% | 1.4e-08 | i | -4%
- CCOC(=O)Nc1ccc2c(CN3CCN(S(=O)(=O)c4ccccc4)CC3)cc(=O)oc2c1
 : i | -0.2% | 3.2e-09 | i | 0%
- Cn1c(SCC(=O)c2ccc(F)cc2)nnc1-c1ccccc1N
 : i | -2.0% | 1.9e-09 | i | -4%
- CCc1ccc(N2CC(C(=O)NC3=NCCS3)CC2=O)cc1 (stereo not drawn)
 : i | 2.6% | 2.9e-08 | i | 1%
- O=C(O)c1cc(-c2cccnc2)nn1-c1ccccn1
 : i | -0.3% | 5.4e-08 | i | -4%
- CCOC(=O)c1sc(NC(=O)CSc2nnnn2-c2ccc(C)c(C)c2)nc1C
 : i | 0.8% | 9.1e-09 | i | 19%
- Cc1cccc(OCc2nnc(SCC(=O)N(C(C)C)C(C)C)n2Cc2ccco2)c1C
 : i | 0.6% | 1e-09 | i | ?
- CCc1nnc2n1N=C(c1ccc(-c3ccc(Cl)cc3Cl)o1)CS2
 : i | -0.8% | 3.4e-08 | i | 12%[11.4 µM]
- Cn1cccc1Cc1nnc(SCC(=O)NC2CCCC2)n1-c1ccc(F)cc1
 : nt | -1.5% | nt | nt | 2%
- COc1ccc(C2C3=C(CCCC3=O)Nc3nc(C(F)(F)F)nn32)c(OC)c1OC (stereo not drawn)
 : i | 4.5% | 1.2e-08 | i | nt
- O=C(NC1CCCCC1)N1CCCCCC1
 : nt | 1.8% | nt | nt | 20%
- O=C(O)[C@H]1CC=CC[C@@H]1C(=O)Nc1cccc(O)c1
 : i | -8.2%[11.5 µM] | 6.3e-08 | i | -4%[11.4 µM]
- CCOc1ccc(-c2nnc(SCC(=O)N3CCOCC3)o2)cc1
 : i | -1.1% | 4.3e-08 | i | -6%
- COc1ccc(-c2cc(C(F)(F)F)nc(NCc3ccco3)n2)cc1OC
 : i | 0.2% | 2.9e-08 | i | ?
- CCOC(=O)c1cnc(Nc2nc3ccccc3o2)nc1CN1CCN(c2ccccc2)CC1
 : i | 0.7% | 1e-09 | i | 0%
- COc1ccc(Br)cc1CNC(=O)C1CCC(=O)N1C(C)C (stereo not drawn)
 : nt | -1.9% | nt | nt | ?
- Cc1nnc2sc(-c3ccc(-c4ccc(Cl)c(C(F)(F)F)c4)o3)nn12
 : i | -2.2% | 9.8e-09 | i | 23%
- O=C(OCC#CCSc1nnc(-c2ccccc2)o1)c1cccs1
 : i | nt | 1e-09 | i | nt
- Cc1cc(C)n2nc(SCc3ncc(-c4ccccc4)o3)nc2n1
 : i | -0.5% | 1.4e-09 | i | 10%
- CC1CC(c2ccccc2)n2nc(NC(=O)CCc3ccccc3)nc2N1 (stereo not drawn)
 : i | -0.2% | 3.1e-09 | i | ?
- COC(=O)C[C@](O)(CCCC(C)(C)O)C(=O)O[C@@H]1C(OC)=C[C@]23CCCN2CCc2cc4c(cc2[C@H]13)OCO4
 : nt | -0.4% | nt | nt | 7%
- COc1cc(/C=N/n2cnnc2)ccc1OCC(=O)N1CCOCC1
 : nt | 3.1% | nt | nt | 4%
- CCN1CCCC1CNC(=O)CCNC(=O)c1cc(OC)c(OC)c(OC)c1 (stereo not drawn)
 : i | -1.1% | 1e-09 | i | -5%
- O=C(CCn1c(=S)oc2ccccc21)Nc1ccc2c(c1)OCCO2
 : i | 0.1% | 1e-09 | i | 0%[11.4 µM]
- O=C(Cn1cccc1C(=O)c1ccccc1)NCc1ccccn1
 : i | 1.0% | 4.2e-08 | i | 0%
- CC(CSc1nc2ccccc2s1)Cn1c(N2CCCC2)nc2c1c(=O)[nH]c(=O)n2C (stereo not drawn)
 : i | -2.1% | 2.1e-08 | i | 1%
- CC(=O)N1CCc2cc(S(=O)(=O)Nc3ccccc3N3CCN(C)CC3)ccc21
 : nt | -1.0% | nt | nt | ?
- CCOC(=O)c1oc2ccccc2c1NC(=O)c1cccs1
 : i | -0.2% | 5.6e-09 | i | ?
- O=C(CCn1c(=O)oc2ccccc21)N(Cc1ccccc1)c1ccccn1
 : i | -0.8% | 1.9e-08 | i | nt
- Cn1c(SCc2c(F)cccc2Cl)nnc1-c1cnccn1
 : i | -1.6% | 2.9e-09 | i | 4%[11.4 µM]
- c1ccc(-c2nnc3n2NC(c2ccc4c(c2)OCO4)S3)cc1 (stereo not drawn)
 : i | 0.8% | 1.2e-08 | i | 25µM*
- CCC(C)(C)n1nnnc1CN(Cc1ccc(Cl)cc1)Cc1ccco1
 : i | 2.7% | 1.8e-09 | i | ?
- COc1cc(OC)cc(C(=O)Nc2ccccc2N2CCOCC2)c1
 : i | -1.0% | 1e-09 | i | ?
- CC1(C)C2CCC1(C)C(OC(=O)CSc1nc(N)cc(=O)[nH]1)C2 (stereo not drawn)
 : nt | -1.3% | nt | nt | -1%
- CCCCC(CC)C(=O)NCCCN1CCN(CCCNC(=O)C(CC)CCCC)CC1 (stereo not drawn)
 : nt | 1.2% | nt | nt | 22%
